BJeLR viability = MLPCN primary cell-based screen for lethality selective to Ras in HRASV12 cells; BJeLR (HRASV12) viability, CellTiter-Glo ATP luminescence, 48 h; reference of the scale not given here; 300,000 compounds, 0.17% hits; inhibition, % (no concentration beside the values);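 active = replicate mean above 50%; inconclusive = above 50% but judged a plate artefact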;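 note: 50 nL library stock added to about 25 µL; numbers are from one replicate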
RN4220 kill = growth inhibition of S. aureus RN4220, primary screen, OD600 | inhibition, % (concentration not given with the values) | 16 h | 330,000 compounds, 0.33% hits | AID 1259311, 2017;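 active = z-score of -3 or lower and OD600 up to 0.18 on both plates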;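 note: plate controls were untreated cells for no effect and reference antibiotic for full effect; stock transfer was 100 nL into about 80 µL; one replicate is shown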
Mtb hypoxia rep = PubChem AID 1159583; M. tuberculosis hypoxia-regulated fluorescent reporter, fluorescence; 300,000 compounds, 0.1% hits; fluorescence inhibition, % (no concentration beside the values);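 active = 35 to 45% if threefold the growth effect, above 45% if 1.5-fold the growth effect; inactive = the rest, general growth blockers included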;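 note: wells of about 50 µL received 100 nL stock; 0% = vehicle wells and 100% = reference inhibitor wells; whole bacteria with a GFP reporter of the hypoxia response; strong numbers were not always called active; many hits fall short of the cut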
PrP 5UTR inh = inhibition of PrP 5' UTR reporter expression | cell-based PrP 5' UTR mRNA reporter, plate reader | inhibition, % (concentration not given with the values) | 340,000 compounds, 0.35% hits | AID 488862, 2010;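 active = every replicate at 50% or more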;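 note: 0 = median of the neutral control wells; tested in H4 reporter cells; numbers are from one replicate; inactives centre near -14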
Autofluor counter = flagged as autofluorescent in microsphere protease counterscreen | compound autofluorescence counterscreen, microsphere flow cytometry; hits give high values | fluorescence intensity (concentration not given with the values) | 360,000 compounds, 3.1% hits | AID 624483;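 active = at least 3 SD above the mean of all compounds, about 16000 in these data; inconclusive = too few beads counted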;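 note: 100 nL of 1 mM stock went into each well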
ugtP null kill = growth inhibition of ugtP-null S. aureus, primary screen, RN4220 ugtP deletion, OD600; 16 h; some inactives read as strong as hits; growth inhibition, % (concentration not given with the values); 330,000 compounds, 0.54% hits; AID 1259309, 2017;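 active = z-score under -3 and OD600 up to 0.15 on both plates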;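 note: plate controls were untreated wells for no effect and antibiotic for full effect; wells of about 80 µL received 100 nL stock; the first replicate is given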
Mtb hypoxia rep growth = also measured in Mtb hypoxia rep; calls as there; growth inhibition, %; measured here: M. tuberculosis growth (absorbance);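 0% = vehicle and 100% = reference antibiotic; read after six days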
Numbers without * were called inactive; u = inconclusive; x = not tested or not shown; & = joins results of further samples.

Results follow in this order: BJeLR viability, RN4220 kill, Mtb hypoxia rep, Mtb hypoxia rep growth, PrP 5UTR inh, Autofluor counter, ugtP null kill
O=C(Nc1ccncc1)c1cc(S(=O)(=O)N2CCCCC2)ccc1Cl
    -3, 6.9, 4, 5, -9, x, 1
O=C(NCCCN1CCCC1=O)c1ccc(OCc2ccccc2)cc1
    13, -0.6, 3, 20, -29, 4382, 4
CCNc1ccc(Br)cc(C(=O)/C=C/c2ccc3c(c2)OCO3)c1=O
    -3, -5.4, 7, -8, -26, 3109, -3
CC(C)C1=Nc2cccc3cccc(c23)N1
    0, 1.3, -72, -17, 5, 9782, -15
CC1CCCCN1C(=S)NC(=O)c1ccco1 (stereo unspecified)
    x, 4.4, 13, 0, 4, 3625, 5
Cc1cccc2cc(CN(CCN(C)C)C(=S)Nc3ccccc3)c(=O)[nH]c12
    9, 4.1, 7, 8, -9, 9934, 2
Cc1ccc(C(=O)Nc2nnc(C3CCCCC3)s2)o1
    16, 1.1, 3, 6, -54, 23882*, -6
CC(C)(C)NC(=O)C(c1ccccn1)N(C(=O)c1ccc2c(c1)OCCO2)C1CCCC1 (stereo unspecified)
    8, -0.1, x, x, -1, 4436, -3
N=C1C(=O)NC(=O)C1c1ccccc1 (stereo unspecified)
    x, 3.3, 9, 7, -161, 3445, 0
CCC(=O)N1CCc2cc(S(=O)(=O)NCCC(=O)N3CCN(c4ccccn4)CC3)ccc21
    x, 4.8, -3, -5, -14, x, 12
O=C(Nc1cc(C(F)(F)F)cc(C(F)(F)F)c1)c1ccc(Cn2cc(C(F)(F)F)ccc2=O)cc1
    3, -6.4, -4, 7, -1, 20069*, -38
CC(=O)/C(=C/Nc1ccc(Oc2ccccc2)cc1)c1ccccc1
    6, -6.0, x, x, -13, 2197, 52
CCCn1c(-c2cc(OC)c(OC)c(OC)c2)nc2c1c(=O)[nH]c(=O)n2Cc1ccccc1
    3, -0.2, 12, 11, -12, 3674, 6
CN(C)C=Nc1c(Br)cc(Br)c2nonc12
    0, 2.1, x, x, -25, 10842, 3
CCOC(=O)c1[nH]c2ccc(OC)cc2c1NC(=S)N1CCN(c2cccc(C)c2C)CC1
    3, 2.4, -17, -2, -14, 2789, -4
O=C(CSc1nc2ccccc2n1S(=O)(=O)c1cccc([N+](=O)[O-])c1)NCc1cccs1
    -5, -0.8, 4, 8, -19, 2558, 4
O=C(Nc1ccccc1-c1ccccc1)C1CCC1
    -7, 5.7, 9, 2, -64, 4920, 1
O=C(NCCSCc1c(F)cccc1Cl)c1ccc(CN2CCOCC2)cc1
    -4, -2.2, 4, 2, -34, 2183, 5
O=C(NCc1nc2ccccc2[nH]1)C1=CC(c2ccccc2)CC(OCc2ccc(CO)cc2)O1 (stereo unspecified)
    x, 1.5&4.8, 18&21, 5&11, x, x, 7&9
Cc1cccc(-n2ncc3c2CCCC3NC(=O)CCN2CCCO2)c1C (stereo unspecified)
    -8, 3.6, -2, -6, -63, x, 8
CCn1nc(C)c(/C=N/NC(=O)c2nc3nc(C)cc(C)n3n2)c1C
    -1, x, x, x, -2, 3405, x
COc1ccc(NC(=O)COC(=O)C23CC4CC(CC(O)(C4)C2)C3)cc1Cl
    x, 2.4, 1, -3, -53, 7888, -2
O=C(N[C@@H](Cc1ccc(O)cc1)C(=O)O)c1cccnc1
    -12, x, x, x, -2, 4082, x
CC[C@@]12C(=O)N(c3cccc(F)c3)C(=O)N1[C@H](c1ccc(Cl)cc1)[C@@H]1C(=O)N(C3CCCCC3)C(=O)[C@@H]12
    -4, x, x, x, -19, 3359, x
O=C1/C(=C/c2ccccc2)SC(=S)N1CCCC(=O)N1CCCCC1CCO (stereo unspecified)
    13, 2.8, 8, 4, -16, 4468, -4
Cc1cc(C(=O)CSc2nn3c(=O)c(C(C)(C)C)nnc3s2)c(C)n1C
    1, 5.6, -1, -2, -23, 3064, 10
COc1ccc(S(N)(=O)=O)cc1C(=O)NNC(=O)c1cccc(S(=O)(=O)N2CCOCC2)c1
    x, 3.2, 12, 7, -26, 6016, 3
CCCCCCn1c(CN2CCCCC2)nc2c1c(=O)n(C)c(=O)n2C
    -2, 3.5, 8, 17, 0, 6298, 11
CCc1ccc(N=C2NC(=O)/C(=C/c3cc(OC)c(O)c(OC)c3)S2)cc1
    4, 23, 9, 22, -18, 3822, -3
CC(C)C[C@H](NC(=O)N1CC(=O)Nc2ccccc21)C(=O)N[C@@H](Cc1c[nH]c2ccccc12)C(=O)O
    3, 0.0, x, x, -22, 4002, 3
CCOC(=O)c1c2ccccc2[n+]([O-])n1CCO
    2, 2.8, 1, 3, -23, 2991, 6
CC(=O)c1ccc(OCC(C)C)c(CN2CCCCC2)c1
    3, 3.1, x, x, 1, 4739, -1
CC(=O)Nc1ccc(C(=O)Nc2ccc(S(=O)(=O)NCC3CCCO3)cc2)cc1 (stereo unspecified)
    -2, 2.0, -2, -5, -18, 14642, 1
COC(=O)c1cc(CNC(=O)C(C)NS(=O)(=O)c2ccc(C)c(C)c2)ccc1OC (stereo unspecified)
    9, 1.2, 3, 7, -9, 3794, 10
Cc1nc2ccc(N=NC3=C(O)CC(C)(C)CC3=O)cc2s1
    -4, 3.6, 11, 6, -38, 1987, 1
CCOC(=O)C(C)(C)N(Cc1cccc(C)c1)S(=O)(=O)c1cccc([N+](=O)[O-])c1
    1, 12, 1, 0, -7, 2626, -14
CC1(C)Cc2c(cnn2-c2ccccc2)C(NC(=O)C2(C(N)=O)CC2)C1 (stereo unspecified)
    -3, 2.1, -11, -12, -7, 5901, 4
COc1ccc2c(c1OC)C(=O)OC2CC(=O)c1ccc(O)cc1 (stereo unspecified)
    3, 2.3, 6, 12, -15, 2530, 5
O=C(CNc1cccc([N+](=O)[O-])c1)N/N=C/c1ccc(F)cc1
    29, x, x, x, -20, 4189, x
CCOc1ccccc1/C=N/n1nnnc1N
    16, x, x, x, -12, 2713, x
CCn1c(SCC(=O)N/N=C(/C)c2ccncc2)nc2ccccc21
    -6, x, x, x, -28, 3389, x
COc1ccccc1N=C(C)C1=C(O)COC1=O
    -14, 3.6, 12, 6, -17, 6412, 2
O=S(=O)(CCN1CCN(c2ccccc2O)CC1)c1cc(Cl)ccc1Cl
    x, 4.7, 7, -1, -14, 5171, 5
CCCC/C(C)=C/[C@@H](NP(=O)(c1ccccc1)c1ccccc1)c1ccccc1
    16, x, x, x, -2, 3081, x
CC[C@@]1(C(=O)OC)N[C@H](CN(C)C(=O)c2ccc(F)cc2)[C@@H]2C(=O)N(C)C(=O)[C@@H]21
    x, -1.2, 3, 7, -20, 3361, 1
O=C(CCNC(=O)c1ccccc1Cl)NN=Cc1ccccc1[N+](=O)[O-]
    x, -0.5, 12, 9, -16, 3064, 2
Cc1ccc(C)c(Cn2c(C)nc3c(sc(=S)n3-c3ccccc3)c2=O)c1
    7, 26, 14, 0, 3, 4291, -75
O=C(N=C1SC2CS(=O)(=O)CC2N1c1ccc(F)cc1)C1CC1 (stereo unspecified)
    0, -0.2, 13, 2, -7, 5246, 0
CC(C)C(CCN1C(=O)c2ccccc2C1=O)c1ccco1 (stereo unspecified)
    -8, 5.7, 23, 24, -12, 8585, 2
CNc1nc(CC(C)=O)ns1
    -2, 6.6, 11, 9, -8, 3297, -3
COc1ccc(/C=C/c2onc(C)c2S(=O)(=O)N2CCC(C(=O)N3CCC(C)CC3)CC2)cc1
    7, -0.4, 5, 19, -10, 5772, 0
CCOC(=O)N1CCN(Cc2nc3c(c(=O)n(C)c(=O)n3C)n2Cc2ccccc2)CC1
    0, -9.9, 3, 15, -14, 6889, -5
CCOC(=O)Cn1cnc2c(nnn2-c2ccc(F)cc2)c1=O
    -2, -7.1, 12, 10, -46, 6029, -3
COC(=O)c1cccc(NC(=O)Cc2coc3cc(OC)ccc23)c1
    2, -5.7, 2, 1, -20, 5451, 4
COc1ccccc1NCC(O)Cn1c2ccccc2c2ccccc21 (stereo unspecified)
    -3, 18, 7, 2, -10, 6147, 30
O=[N+]([O-])c1ccccc1S(=O)(=O)N1CCN(CC2CC=CCC2)CC1 (stereo unspecified)
    2, 4.6, 10, 1, -28, 4824, 13
CS(=O)(=O)c1ccc2nc(NC(=O)CCN3C(=O)c4ccccc4C3=O)sc2c1
    1, 3.1, 11, 3, -30, 4895, 6
NC(=O)Nc1ccc(C(=O)OCC(=O)Nc2sccc2C(N)=O)cc1
    x, -0.9, 2, 2, -18, u, 0
CCOC(=O)N1CCN(c2cc(=O)n(-c3ccc(OCC)cc3)c(=O)[nH]2)CC1
    -8, 5.7, 1, -1, -22, 22900*, 1
CCOc1cccc(SCc2noc(C(=O)NCC3CCCO3)c2C(=O)O)c1 (stereo unspecified)
    -3, x, x, x, -13, 2890, x

Remaining list, next part.
Results follow in this order: BJeLR viability, RN4220 kill, Mtb hypoxia rep, Mtb hypoxia rep growth, PrP 5UTR inh, Autofluor counter, ugtP null kill
Cc1c(C(=O)N2CCC(C)CC2)oc2ccc(S(=O)(=O)N3CCC4(CC3)OCCO4)cc12
    6, 6.3, 9, 7, -14, 7218, 15
Cc1ccc(CNC(=O)CCCc2c[nH]c3ccccc23)cc1
    -2, 3.0, 0, 0, 2, 4255, -6
O=C(NCCc1ccccc1)c1cc2ccccc2oc1=O
    -1, 1.5, 0, 13, -33, 3821, 4
Cc1ccc(-c2cc(C(=O)N/N=C/c3cccnc3)n[nH]2)o1
    7, x, x, x, -16, 2409, x
CC1CCCCC1NC(=O)CSc1nnc(CNC(=O)c2ccccc2)n1C (stereo unspecified)
    8, 3.5, 18, 8, -23, 2051, 9

Rewritten tab-delimited: entries from further up.
Structure	BJeLR viability	RN4220 kill	Mtb hypoxia rep	Mtb hypoxia rep growth	PrP 5UTR inh	Autofluor counter	ugtP null kill
CCOC(=O)Cn1cnc2c(nnn2-c2ccc(F)cc2)c1=O	-2	-7.1	12	10	-46	6029	-3
COC(=O)c1cccc(NC(=O)Cc2coc3cc(OC)ccc23)c1	2	-5.7	2	1	-20	5451	4
COc1ccccc1NCC(O)Cn1c2ccccc2c2ccccc21 (stereo unspecified)	-3	18	7	2	-10	6147	30
O=[N+]([O-])c1ccccc1S(=O)(=O)N1CCN(CC2CC=CCC2)CC1 (stereo unspecified)	2	4.6	10	1	-28	4824	13
CS(=O)(=O)c1ccc2nc(NC(=O)CCN3C(=O)c4ccccc4C3=O)sc2c1	1	3.1	11	3	-30	4895	6
NC(=O)Nc1ccc(C(=O)OCC(=O)Nc2sccc2C(N)=O)cc1	x	-0.9	2	2	-18	u	0
CCOC(=O)N1CCN(c2cc(=O)n(-c3ccc(OCC)cc3)c(=O)[nH]2)CC1	-8	5.7	1	-1	-22	22900*	1
CCOc1cccc(SCc2noc(C(=O)NCC3CCCO3)c2C(=O)O)c1 (stereo unspecified)	-3	x	x	x	-13	2890	x
Cc1c(C(=O)N2CCC(C)CC2)oc2ccc(S(=O)(=O)N3CCC4(CC3)OCCO4)cc12	6	6.3	9	7	-14	7218	15
Cc1ccc(CNC(=O)CCCc2c[nH]c3ccccc23)cc1	-2	3.0	0	0	2	4255	-6

Random draw from the library. About 4.1% of those tested had a hit in this group.
